High-throughput results deposited in PubChem BioAssay by several laboratories.
Mtb bLac sens = beta-lactam sensitization of Mtb H37Rv. M. tuberculosis H37Rv growth with meropenem, percent inhibition; hits of this screen are not shown here. inhibition, % at 25 µM. AID 434955. 0.27% of 330,000 active;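 active = about 74% or more and at least 40 points above the plate without the antibiotic, then above 30% in a dose series; inconclusive = first-round hits that could not be retested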;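 also: growth measured after seven days incubation then overnight dye step; 0% = bacteria only wells and 100% = bacteria with antibiotic; twin plates without the antibiotic show which effects depend on it; some results filed as inactive read as strong as hits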
Mtb H37Rv = M. tuberculosis H37Rv growth inhibitors, H37Rv strain (AID 1626) | M. tuberculosis H37Rv growth inhibition; higher % means a stronger effect | 0.95% of 220,000 active | one-dose inhibition, % at 10 µM; IC50 in µM for titrated hits;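 active = confirmed in a dose series; inconclusive = inhibition above 80% but not taken into the dose series; inactive = below 80% or under 30% at every dose of the series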;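 also: bacteria incubated seven days before Alamar blue readout; 0% = bacteria only wells and 100% = bacteria with antibiotic wells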
YopH PTP inh = blocks Yersinia enterocolitica YopH tyrosine phosphatase. inhibition, %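 (about 10 µM by stock and volumes)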. fluorescence Ex485/Em525. 0.16% of 140,000 active;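 active = inhibition of 50% or more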;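 also: controls were vehicle for no effect and minimum signal wells for full effect; inactives centre near -20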
RecA splice inh = blocks M. tuberculosis RecA intein splicing; cell-free RecA intein splicing, fluorescence; inhibition, %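 (about 9 µM by stock and volumes)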; 0.75% of 290,000 active; P9WHJ3; in the data active = inhibition above about 30%; inconclusive = no clear call, values can overlap the other calls;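 also: 0% = vehicle wells and 100% = reference inhibitor control wells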
Target sequence (P9WHJ3 whole entry, looked up, canonical isoform): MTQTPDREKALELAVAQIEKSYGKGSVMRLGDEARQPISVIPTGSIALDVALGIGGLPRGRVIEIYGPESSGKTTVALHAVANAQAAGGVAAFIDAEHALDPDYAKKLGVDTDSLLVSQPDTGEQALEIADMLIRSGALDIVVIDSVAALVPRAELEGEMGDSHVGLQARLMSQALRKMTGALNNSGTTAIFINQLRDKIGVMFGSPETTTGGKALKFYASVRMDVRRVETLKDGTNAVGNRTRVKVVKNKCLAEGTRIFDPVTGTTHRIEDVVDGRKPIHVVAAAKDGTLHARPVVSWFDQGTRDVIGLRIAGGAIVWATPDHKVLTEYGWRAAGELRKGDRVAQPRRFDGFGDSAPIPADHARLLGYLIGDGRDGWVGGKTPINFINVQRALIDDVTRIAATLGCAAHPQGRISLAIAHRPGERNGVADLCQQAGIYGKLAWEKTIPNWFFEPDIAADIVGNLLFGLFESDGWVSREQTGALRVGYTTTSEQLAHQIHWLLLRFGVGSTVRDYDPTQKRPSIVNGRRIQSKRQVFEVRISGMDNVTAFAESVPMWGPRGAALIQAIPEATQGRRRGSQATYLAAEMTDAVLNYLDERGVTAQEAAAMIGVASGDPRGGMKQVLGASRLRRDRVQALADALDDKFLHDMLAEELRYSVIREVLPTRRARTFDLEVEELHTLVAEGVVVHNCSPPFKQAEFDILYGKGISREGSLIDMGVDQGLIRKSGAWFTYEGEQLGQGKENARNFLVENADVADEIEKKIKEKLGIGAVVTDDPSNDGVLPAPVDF
Arbovirus inh = antivirals against arbovirus infection | 0.37% of 200,000 active | inhibition, % at 10 µM | arbovirus infection cell-based antiviral screen;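 active = inhibition from about 30%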;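 also: bluetongue infection of BSR cells; cell survival read as ATP light after 72 h; 0% = infected wells without compound and 100% = uninfected wells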
Arbovirus inh repeat = also measured in Arbovirus inh; calls as there; inhibition, %; measured here: 10K subset replicate screen; many hits read low in the repeat;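 first of two repeat runs on a subset; 0% = infected and 100% = uninfected wells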
Numbers without * were called inactive; ? = inconclusive; . = not tested or not shown. Not all compounds are listed; count on the stated rates, not on these rows.

SMILES	Mtb bLac sens	Mtb H37Rv	YopH PTP inh	RecA splice inh	Arbovirus inh	others
COc1ccc(CN2C(=O)CSCC2=O)cc1OC	-1	.	.	-2.3	.
COc1ccc(Cl)cc1C(=O)Nc1ccncc1	-1	.	.	-2.4	.
Nc1ccc(C(=O)N/N=C/c2cn(Cc3ccc(F)cc3)c3ccccc23)cc1	8	.	.	2.9	.
NS(=O)(=O)c1ccc(CCNC(=O)CNC(=O)Cc2ccccc2)cc1	1	.	.	-13	.
O=C(c1ccccc1)c1ccc(OCC(O)CNCc2ccc(F)cc2)cc1 (stereo not drawn)	-3	.	.	2.5	.
CC1SCC(NC(=O)c2ccc(Cl)cc2)CS1 (stereo not drawn)	?	8%	.	2.3	.
O=S(=O)(Nc1ccccn1)c1cccc(S(=O)(=O)c2ccc(Br)cc2)c1	0	-1%	.	-0.1	22
COC(=O)C1=C(C)Nc2ncnn2C1c1cccnc1 (stereo not drawn)	-5	-1%	-60	-2.0	5
Cc1cccc(NC(=O)CSc2ccc(-c3cccnc3)nn2)c1	-14	.	.	3.8	.
O=c1c2ccccc2c(C=Nc2ccc(Cl)cn2)c(O)n1-c1cc(Cl)ccc1N1CCOCC1	-10	-15%	-32	0.3	0
CCC(=O)N1CCN(c2ccc(NC(=O)c3ccc([N+](=O)[O-])o3)cc2Cl)CC1	.	?	.	-0.7	-21
Cc1ccc(/C=C/C(=O)NCCc2c[nH]c3ccccc23)o1	-1	7%	.	4.1	-27
Cc1ccc(C2(C)NC(=O)N(CC(=O)Nc3cc(C)on3)C2=O)cc1 (stereo not drawn)	-2	-2%	-9	0.8	10
CCc1ccc(-c2cc3c(=O)n(CC(=O)NCCCN4CCN(C)CC4)ncn3n2)cc1	?	.	.	-4.1	.
COc1ccc(NC(=O)OCC(C)C)cc1OC	-3	0%	-14	.	-1
O=C(COc1ccc(Cl)cc1Cl)NCCSc1ccc(Cl)cc1	-6	11%	-15	1.0	9
Cc1ccc(N2C(=O)c3ccccc3C2C(=O)c2cc(C)ccc2O)cc1 (stereo not drawn)	-7	4%	-14	-2.9	1
O=C(N=C1SCC(=O)N1c1ccccc1Cl)c1ccccc1	.	3%	.	-0.4	12
O=C(CSc1nnc(Cc2ccccc2)o1)c1cc(F)ccc1F	0	2%	.	2.9	22
CCC(=O)Nc1cc(C(=O)NCC2CCCN2CC)c(OC)cc1N(C)C (stereo not drawn)	-6	-4%	-4	0.5	5
COc1cc(C(=O)NC2CCCCC2)ccc1OC1CCN(C(C)=O)CC1	-1	.	.	-2.0	.
CC1CCCC(C)N1NC(=O)Cc1ccccc1 (stereo not drawn)	4	.	.	1.0	.
CC(NC(=O)c1cccs1)c1ccc2c(c1)OCO2 (stereo not drawn)	0	-5%	-16	4.4	-3
COc1ccc(NS(=O)(=O)c2ccc(NS(=O)(=O)c3cccs3)cc2)cc1	-5	.	.	1.6	.
C/C(=N\Nc1nnc2c3ccccc3n(C)c2n1)c1ccc(C)o1	2	2%	-25	-1.1	-4

Of the compounds above, these contain a thiophene ring, fused or not.
SMILES	Mtb bLac sens	Mtb H37Rv	YopH PTP inh	RecA splice inh	Arbovirus inh	others
CC(NC(=O)c1cccs1)c1ccc2c(c1)OCO2 (stereo not drawn)	0	-5%	-16	4.4	-3
COc1ccc(NS(=O)(=O)c2ccc(NS(=O)(=O)c3cccs3)cc2)cc1	-5	.	.	1.6	.

Further results:
SMILES	Mtb bLac sens	Mtb H37Rv	YopH PTP inh	RecA splice inh	Arbovirus inh	others
COc1cc(C)cc(CN2CC=C(c3ccccc3)CC2)c1O	-1	35%	.	1.6	22
Cc1ccc(C(=O)NCCNC(=O)c2cnccn2)cc1	-2	.	.	0.0	.
CC(Oc1cc2oc(=O)c3c(c2cc1Cl)CCC3)C(=O)NCc1cccnc1 (stereo not drawn)	-3	.	.	0.4	.
CCN(CC)S(=O)(=O)c1ccc(C(=O)N2CCN=C2SC)cc1	-4	-18%	-14	8.8	5
COCCN=c1scc(-c2ccco2)n1/N=C/c1ccc(O)c(O)c1O	-9	2%	.	.	-1
O=C(Nc1ccccc1Cl)N1CCN(c2ccc3nnc(-c4ccc(F)cc4)n3n2)CC1	64	.	-40	2.7	-5
Cn1cc(S(=O)(=O)NC2CCCCCC2)c(=O)n(C)c1=O	-6	.	.	-0.5	.
CCN(CC)S(=O)(=O)c1ccc(C(=O)NNc2nc(-c3ccccc3)c3cc(Br)ccc3n2)cc1	0	-2%	-12	0.6	-12
COc1ccc(C(=O)NC(=S)NNC(=O)c2ccc(NC(C)=O)cc2)cc1Br	0	-7%	.	1.2	-6
CC12CCC(=O)N1C(C(=O)Nc1nc(-c3ccccc3)cs1)CS2 (stereo not drawn)	-2	.	.	-0.8	.
CCc1ccc2nc(Nc3ccc(OC)cc3OC)c(C#N)cc2c1	-1	4%	.	-3.3	1
CCOc1ccc(Cn2ccnc2)cc1[N+](=O)[O-]	6	7%	-5	2.6	-7
COCc1[nH][nH]c(=O)c1C=Nc1ccc(C(F)(F)F)cc1	-3	2%	.	2.5	3
CN(C)C(=O)Nc1ccccc1CC[N+](=O)[O-]	0	-1%	.	3.0	10
Cc1csc(NC(=O)C2CCCN(S(=O)(=O)c3cnc[nH]3)C2)n1 (stereo not drawn)	2	-10%	-4	-0.1	3
CC(C)C(NC(=O)CNC(=O)OC(C)(C)C)C(=O)NCc1ccccc1 (stereo not drawn)	0	-15%	-32	-0.4	2
Cc1nc(Cl)c(N=Cc2cccc([N+](=O)[O-])c2)c(Cl)n1	1	.	.	3.0	.
CC(=O)Nc1ccc(S(=O)(=O)N(Cc2cccnc2)Cc2cc3ccccc3[nH]c2=O)cc1	3	.	.	-2.3	.
CCCCN(C(=O)CSc1nnc(-c2ccc(OC)cc2)n1CC)c1c(N)n(Cc2ccccc2)c(=O)[nH]c1=O	0	4%	-17	-2.0	2
COc1ccc(C(=O)Nc2nnc(-c3ccccc3)s2)cc1	5	.	.	-1.5	.
COc1ccc(C/C(C)=N\NC(=O)c2c[nH]c3ccccc23)cc1OC	2	-2%	.	-4.3	.
CC(c1ccccc1)N1C(=O)C2C3C=CC(C4CC34)C2C1=O (stereo not drawn)	2	-5%	.	4.1	-1
N#CC1=C(N)NC(=S)C(C(N)=O)C1c1ccc([N+](=O)[O-])cc1 (stereo not drawn)	-3	3%	.	-4.8	-1
COc1ccc(C2/C(=C(\O)c3ccc4c(c3)OCCO4)C(=O)C(=O)N2Cc2ccco2)c(OC)c1 (stereo not drawn)	-3	-9%	-36	2.9	-2
Cc1ccc(C(=O)N/C(=C/c2ccco2)C(=O)OCN2C(=O)c3ccccc3C2=O)cc1	99	8%	-35	-1.4	-1
Following part
SMILES	Mtb bLac sens	Mtb H37Rv	YopH PTP inh	RecA splice inh	Arbovirus inh	others
CCn1c(SCC(=O)N/N=C/c2ccc(C)s2)nc2ccccc21	-8	-2%	4	0.8	-13
O=C(Nc1ccc(F)cc1)C(NC1CCCCC1)c1ccccc1 (stereo not drawn)	15	1%	.	3.1	2
CC(C)(C)C(=O)Nc1cccc(-c2nc3ccccc3c(=O)o2)c1	-5	71%	4	8.2	8
O=C(Nc1nccs1)c1ccc2c(=O)n3c(nc2c1)CCCCC3	-9	1%	-14	-1.3	9
CCNC(=S)N(Cc1ccco1)Cc1cc2cc3c(cc2[nH]c1=O)OCCO3	-9	5%	-8	0.1	-12
C[C@]12CC[C@@H]3c4ccc(O)cc4C(=O)C[C@H]3[C@@H]1CC[C@@H]2O	-3	-6%	.	0.1	-6
CC1(C)CC(NC(=O)N2c3ccccc3Sc3ccccc32)CC(C)(C)N1	1	-6%	.	-5.0	.
Cn1c(SCC(=O)N2CCOCC2)nnc1-c1cccc(NC(=O)c2ccccc2)c1	-4	-11%	-39	-0.2	2
CCc1nnc(NC(=O)CSc2nnc(Cc3ccc(OC)cc3)o2)s1	-4	1%	-36	-1.1	7
CCCCOc1cccc(C(=O)Nc2ccc(NC(=O)c3cccs3)cc2)c1	4	.	.	-2.4	.
CCCNNC(=O)C(O)(c1ccccc1)c1ccccc1	7	0%	-28	-0.1	-3
Cc1ccc(-c2nc3ccccc3s2)cc1NC(=S)NC(=O)c1ccccc1	15	-8%	12	-2.1	-8
CCOc1ccc(-n2c(-c3ccccc3)c[n+]3c2CCC3)cc1	-5	2%	.	1.5	9
Cc1cc(C)cc(NC(=O)COC(=O)CN=C2NS(=O)(=O)c3ccccc32)c1	-2	2%	.	1.2	-5
Cc1ccc(Cn2cc(S(=O)(=O)c3ccc(C(C)C)cc3)c(=O)c3cc4c(cc32)OCO4)cc1	18	10%	-18	0.8	3
CCn1c(CC(=O)Nc2ccccc2F)nnc1SCC(=O)NC1CCCCC1	-5	.	.	-0.8	.
CCc1nnc(NS(=O)(=O)c2ccc(N=Cc3c(O)n(-c4ccccc4)c(=O)[nH]c3=O)cc2)s1	82	4%	.	-1.2	9
NC(=O)CCN1CCN(Cc2nc(C(c3ccccc3)c3ccccc3)no2)CC1	0	-7%	.	-1.5	7
COc1cccc(N2CCN(c3ccc4nnc(CCC(=O)Nc5ncccc5C)n4n3)CC2)c1	0	.	.	1.9	.
CN1CCN(C(=O)/C(=C\c2ccccc2)c2ccccc2)CC1	-2	-7%	-17	1.5	-1
NCCCC[C@H]1CN=C(N)N1CCCCC1CCCCC1	7	7%	.	-1.9	.
NNc1nc(NCc2ccccc2)nc(N2CCOCC2)n1	90	3%	-18	-2.0	4
Clc1cc(Br)ccc1OCCCn1ccnc1	14	6%	-11	-1.2	-6
C=CCOc1ccc(-c2n[nH]c(=S)o2)cc1	13	4%	.	-3.7	13
CC(C)COC(=O)Cc1c(O)c2ccccc2[nH]c1=O	8	-20%	-50	-0.2	8
New compounds follow
SMILES	Mtb bLac sens	Mtb H37Rv	YopH PTP inh	RecA splice inh	Arbovirus inh	others
Cc1ccccc1OCCOc1cccc(/C=N/NC(=O)Cc2nnc(N)s2)c1	6	10%	-29	-2.0	-12
O=C(Nc1cccc(C(=O)O)c1)Nc1ccccc1Cl	6	4%	.	-4.1	-2
CCOc1ccc(S(=O)(=O)Nc2cc(C)ccn2)c2ccccc12	5	-11%	-5	-0.1	6
O=C(/C=C/N1CCOCC1)c1coc2ccccc12	0	.	-30	2.9	-4
O=C(Nc1ccc([N+](=O)[O-])cc1)C(Cc1ccccc1)N1C(=O)c2cccc3cccc(c23)C1=O (stereo not drawn)	-5	-2%	.	3.3	-17
CCOP(=O)(OCC)c1nc(-c2ccccc2)oc1N1CCCCC1	-1	.	.	-0.9	.
CCc1c(C)sc(NC(=O)c2cc(C)on2)c1C#N	-1	-4%	-33	4.1	-8
c1ccc(-c2cc3c(-n4cccc4)ncnc3o2)cc1	-2	.	-2	-0.9	-4
O=C(CN(Cc1ccccc1)S(=O)(=O)c1ccc(Br)cc1)NCC1CCCO1 (stereo not drawn)	-1	.	.	0.5	.
COc1cccc(CNS(=O)(=O)c2ccc3c(c2)C(C)(C)C(=O)N3C)c1	-2	.	.	2.2	.
CC(C)(C)c1ccc(OCC(O)CN(CCO)CC(O)Cn2ccc3ccccc32)cc1 (stereo not drawn)	1	13%	-2	-0.7	-5
O=C(COc1ccccc1)Nn1c(-c2ccccc2)nc2ccccc2c1=O	-2	-3%	-11	0.6	20
COc1ccc(C2CC(c3ccccc3)=NN2C(=O)COC(=O)c2cc(S(=O)(=O)N3CCOCC3)ccc2F)cc1 (stereo not drawn)	0	1%	-23	1.4	3
CCn1c(=O)c([N+](=O)[O-])c(NCCCn2ccnc2)c2ccccc21	-13	-1%	.	-1.9	.
Cc1ccc(NC(=O)c2ccco2)cc1NC(=O)CSc1nnc(-c2cccs2)n1C	8	-2%	4	1.6	5
Cc1ccc(CNS(=O)(=O)c2ccc3c(c2)OCCO3)cc1	13	21%	-21	-2.2	8
CCC(C)NS(=O)(=O)c1ccc(OCC(=O)NCc2ccc3c(c2)OCO3)cc1 (stereo not drawn)	8	4%	0	1.2	2
O=C(N/N=C/c1ccccn1)c1ccc(Cl)c(Cl)c1	88	.	.	1.4	.
COc1ccc(C(=O)NCc2cn3cccc(C)c3n2)cc1OC	-2	1%	-25	-1.9	-2
Cn1cc(CN2CCN(CCO)CC2)c(-c2ccc(Oc3ccccc3)cc2)n1	-14	1%	.	-0.3	-17
O=C(NN1C(=O)/C(=C/C=C/c2ccccc2)SC1=S)c1ccncc1	87	-5%	.	4.7	21
CC1CC(C)CN(S(=O)(=O)N2CCCC(C(=O)NCCc3ccc(Cl)cc3)C2)C1 (stereo not drawn)	-5	.	.	-0.5	.
CCCC(=O)Nc1c(-c2cccs2)c(=O)c2ccccc2n1CC	-3	.	-6	1.1	5
Cc1oc(-c2cc(F)ccc2F)nc1CN1CCN(c2cnccn2)CC1	14	4%	.	-0.6	0
O=C(c1ccc2nc(N3CCCCC3)sc2c1)N1CCN(Cc2ccc3c(c2)OCO3)CC1	4	8%	-14	3.3	-11	Arbovirus inh repeat=-23
